Env fusion inh: inhibitors of HIV Env-mediated cell fusion | HeLa-JRFL Env/CEM21 cell fusion, luciferase | 360,000 compounds, 1.1% hits | inhibition, % at 12.3 µM | AID 651610;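 active = mean replicate inhibition score of at least 50 and every replicate individually at or above 50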;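 note: 0% = plate neutral controls and 100% = maraviroc near 300 nM; one replicate is shown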
UUG fidelity: alters start codon recognition fidelity in yeast; S. cerevisiae UUG-firefly luciferase reporter, luminescence/redox ratio; activity score, % at 18.7 µM; 350,000 compounds, 0.13% hits;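 active = replicate mean at a twofold rise or more, about +100% in these data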;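 note: firefly luciferase made from a UUG start codon reports start codon fidelity; reporter light over untreated wells divided by growth signal over untreated wells; some hits fall short of that in this replicate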
* = called active by the depositor; [ ] = dose if it differs, or a comment. Some of the compounds tested; rates above refer to the full screens.

Structure,Env fusion inh,UUG fidelity
C[C@H](CO)N1C[C@H](C)[C@@H](CN(C)C(=O)CCCN(C)C)OCCCC[C@H](C)Oc2ccc(NC(=O)c3ccncc3)cc2C1=O,-4.2[16.7 µM],-1.8
Cc1noc(C)c1NC(=O)Nc1cccc2c1O[C@@H](CN(C)Cc1ccc(C(=O)Nc3ccccc3N)cc1)[C@H](C)CN([C@H](C)CO)C2=O,19.6[16.7 µM],2.4
C[C@H]1CCCCO[C@@H](CN(C)Cc2ccc(C(=O)O)cc2)[C@@H](C)CN([C@@H](C)CO)C(=O)c2cc(NC(=O)C3CCCCC3)ccc2O1,2.4[16.7 µM],7.6
O=C(C[C@@H]1C=C[C@@H](NC(=O)Nc2ccc3c(c2)OCO3)[C@H](CO)O1)NCc1ccc(F)cc1,59.2*[16.7 µM],-17.4
C[C@@H]1CN([C@@H](C)CO)C(=O)Cc2cc(NC(=O)Nc3ccc(C(F)(F)F)cc3)ccc2O[C@@H]1CN(C)C(=O)Nc1ccccc1,-21.1[16.7 µM],7.6
COc1ccccc1S(=O)(=O)N[C@H]1CC[C@H](CCn2cc(C3CC3)nn2)O[C@@H]1CO,14.8[16.7 µM],9.3
CC(=O)N(C)C[C@@H]1Oc2ncc(C#Cc3ccccc3F)cc2C(=O)N([C@H](C)CO)C[C@@H]1C,-2.2[16.7 µM],-11.2
COc1ccc(-c2cn(CC[C@H]3CC[C@H](NC(=O)c4cnccn4)[C@@H](CO)O3)nn2)cc1,27.3[16.7 µM],-2.8
C[C@H](CO)N1C[C@H](C)[C@@H](CN(C)C(=O)Nc2cccc3ccccc23)Oc2ccc(NC(=O)Nc3ccccc3)cc2C1=O,-16.1[16.7 µM],7.8
O=C(C[C@H]1CC[C@@H]2NC[C@H](O)COC[C@H]2O1)Nc1ccc(-c2ccccc2)cc1,-5.9[16.7 µM],-10.8
COc1ccccc1CNC(=O)C[C@H]1C=C[C@@H](NC(C)=O)[C@@H](CO)O1,-1.9[16.7 µM],-6.0
Cc1ccc(S(=O)(=O)N[C@@H]2CC[C@@H](CCNC(=O)c3ccc4c(c3)OCO4)O[C@@H]2CO)cc1,-7.5[16.7 µM],-9.4
C[C@H](CO)N1C[C@H](C)[C@@H](CN(C)C(=O)Nc2ccccc2F)Oc2ncc(-c3ccc(F)cc3)cc2C1=O,0.4[16.7 µM],9.9
C[C@@H]1CCCCO[C@@H](CN(C)C(=O)CCCN(C)C)[C@H](C)CN([C@H](C)CO)C(=O)c2cc(NC(=O)Nc3cccc4ccccc34)ccc2O1,27.8[16.7 µM],8.7
O=C(Cc1ccccc1)N[C@@H]1CC[C@H](CC(=O)N2CCOCC2)O[C@@H]1CO,-3.4[16.7 µM],5.4
CC(=O)N(C)C[C@@H]1Oc2cc(C#CC(C)C)ccc2S(=O)(=O)N([C@H](C)CO)C[C@@H]1C,8.5[16.7 µM],17.2
Cc1noc(C)c1S(=O)(=O)Nc1ccc2c(c1)C(=O)N([C@H](C)CO)C[C@H](C)[C@@H](CN(C)CC1CC1)O2,-2.4[16.7 µM],-2.2
CCCNC(=O)C[C@H]1CC[C@H]2[C@@H](COC[C@@H](O)CN2C(=O)c2ccc(F)cc2)O1,-36.6[16.7 µM],-7.1
CCCc1cn(CC[C@H]2CC[C@H](NC(=O)C3CCCCC3)[C@@H](CO)O2)nn1,-1.9[16.7 µM],-24.3
CCCNC(=O)N(C)C[C@H]1Oc2cc(C#CCOC)ccc2S(=O)(=O)N([C@@H](C)CO)C[C@H]1C,4.3[16.7 µM],17.8

Another view of 3 compounds above.
COc1ccccc1CNC(=O)C[C@H]1C=C[C@@H](NC(C)=O)[C@@H](CO)O1
  Env fusion inh = -1.9[16.7 µM]	UUG fidelity = -6.0

Cc1ccc(S(=O)(=O)N[C@@H]2CC[C@@H](CCNC(=O)c3ccc4c(c3)OCO4)O[C@@H]2CO)cc1
  Env fusion inh = -7.5[16.7 µM]	UUG fidelity = -9.4

C[C@H](CO)N1C[C@H](C)[C@@H](CN(C)C(=O)Nc2ccccc2F)Oc2ncc(-c3ccc(F)cc3)cc2C1=O
  Env fusion inh = 0.4[16.7 µM]	UUG fidelity = 9.9

(next part)
Structure,Env fusion inh,UUG fidelity
C[C@@H]1CCCCO[C@H](CN(C)S(=O)(=O)c2cn(C)cn2)[C@H](C)CN([C@@H](C)CO)C(=O)c2cc(NC(=O)Nc3ccc(F)cc3)ccc2O1,-9.0[16.7 µM],4.3
COc1ccc(S(=O)(=O)Nc2ccc3c(c2)C(=O)N([C@@H](C)CO)C[C@H](C)[C@@H](CN(C)S(C)(=O)=O)OCCCC[C@@H](C)O3)cc1,-2.6[16.7 µM],11.2
C[C@@H]1CCCCO[C@H](CN(C)CC2CCCCC2)[C@H](C)CN([C@@H](C)CO)C(=O)c2cc(NC(=O)Nc3cccc4ccccc34)ccc2O1,9.4[16.7 µM],11.2
C[C@@H]1CN([C@@H](C)CO)C(=O)c2cc(Br)cnc2O[C@@H]1CN(C)C(=O)c1cccnc1,1.3[16.7 µM],-11.3
CCC(=O)Nc1ccc2c(c1)OC[C@H](C)N(C(=O)c1ccncc1)C[C@@H](C)[C@H](OC)CN(C)C2=O,-11.3[16.7 µM],3.3
COc1ccc(NC(=O)Nc2ccc3c(c2)CC(=O)N([C@@H](C)CO)C[C@@H](C)[C@H](CN(C)S(=O)(=O)c2c(C)noc2C)O3)cc1,-21.5[16.7 µM],7.3
C[C@@H]1CN([C@H](C)CO)C(=O)c2cc(NS(C)(=O)=O)ccc2O[C@@H](C)CCCCO[C@H]1CN(C)C(=O)C1CCCCC1,-0.3[16.7 µM],16.2
C[C@H](CO)N1C[C@H](C)[C@H](CN(C)S(=O)(=O)c2ccc(F)cc2)OCCCC[C@H](C)Oc2ccc(NC(=O)c3ccncc3)cc2C1=O,-23.1[16.7 µM],-8.2
COc1ccc(NC(=O)N(C)C[C@@H]2Oc3c(NC(=O)c4ccc(-c5nccs5)cc4)cccc3C(=O)N([C@H](C)CO)C[C@@H]2C)cc1,-35.6[16.7 µM],0.7
O=C(C[C@H]1CC[C@@H]2[C@H](COC[C@@H](O)CN2C(=O)Nc2ccc(Cl)c(Cl)c2)O1)NC1CCC1,-3.6[16.7 µM],4.5
O=C(N[C@H]1CC[C@H](CC(=O)N2CCc3ccccc3C2)O[C@H]1CO)C1CC1,-41.5[16.7 µM],8.3
C[C@H]1CN([C@@H](C)CO)C(=O)c2cc(NC(=O)Cn3cnnn3)ccc2O[C@@H]1CN(C)Cc1ccc(-c2ccccc2)cc1,8.4[16.7 µM],-0.2
C[C@@H]1CN([C@@H](C)CO)C(=O)c2cc(/C=C/c3ccccc3)cnc2O[C@H]1CN(C)C(=O)Nc1ccccc1F,6.7[16.7 µM],7.9
C[C@@H]1CN([C@@H](C)CO)C(=O)c2cc(NC(=O)c3ccccc3)ccc2O[C@@H](C)CCCCO[C@@H]1CN(C)Cc1ccncc1,0.1[16.7 µM],8.5
CC(C)NC(=O)N(C)C[C@H]1Oc2ccc(NC(=O)C3CCCCC3)cc2C(=O)N([C@@H](C)CO)C[C@H]1C,1.2[16.7 µM],3.2
COc1ccccc1-c1cnc2c(c1)C(=O)N([C@@H](C)CO)C[C@H](C)[C@H](CN(C)Cc1ccccc1)O2,-12.9[16.7 µM],-2.7
C[C@H](CO)N1C[C@H](C)[C@@H](CN(C)Cc2ccc(C(=O)O)cc2)OCCCC[C@H](C)Oc2ccc(NC(=O)c3ccncc3)cc2C1=O,11.1[16.7 µM],-2.4
CN(C)C(=O)C[C@@H]1C=C[C@H](NC(=O)C2CC2)[C@@H](CO)O1,7.1[16.7 µM],-4.9
C[C@H](CO)N1C[C@H](C)[C@@H](CN(C)C(=O)NC2CCCC2)Oc2ncc(C#CC3CCCCC3)cc2C1=O,5.7[16.7 µM],27.8
C[C@@H]1CN([C@@H](C)CO)C(=O)c2cc(NS(=O)(=O)c3ccc(F)cc3)ccc2O[C@@H](C)CCCCO[C@@H]1CN(C)C(=O)Nc1ccc(F)cc1,-75.6[16.7 µM],-10.6
COc1ccc(S(=O)(=O)N2C[C@H](O)COC[C@H]3O[C@@H](CC(=O)N(C)C)CC[C@@H]32)cc1,1.0[16.7 µM],-11.3
C/C=C/c1cnc2c(c1)C(=O)N([C@H](C)CO)C[C@H](C)[C@H](CN(C)C(=O)C1CC1)O2,-11.4[16.7 µM],-9.7
Cc1ccc(S(=O)(=O)Nc2ccc3c(c2)C(=O)N([C@H](C)CO)C[C@@H](C)[C@H](CN(C)Cc2ccc4c(c2)OCO4)OCCCC[C@H](C)O3)cc1,-8.0[16.7 µM],20.6
COCC#Cc1cnc2c(c1)C(=O)N([C@H](C)CO)C[C@@H](C)[C@H](CN(C)C(=O)Nc1ccccc1OC)O2,-6.1[16.7 µM],16.8
O=C(C[C@@H]1C[C@@H]2c3cc(NC(=O)Nc4ccccc4F)ccc3O[C@@H]2[C@H](CO)O1)NCc1ccc(Oc2ccccc2)cc1,2.5[16.7 µM],-2.3
Cc1noc(C)c1NC(=O)N(C)C[C@@H]1Oc2c(NC(=O)C3CC3)cccc2C(=O)N([C@H](C)CO)C[C@@H]1C,6.6[16.7 µM],2.0
COc1ccc(-c2ccc3c(c2)O[C@H](CN(C)Cc2ccccc2C(=O)O)[C@H](C)CN([C@@H](C)CO)S3(=O)=O)cc1,2.5[16.7 µM],-10.0
Cc1noc(C)c1NC(=O)Nc1ccc2c(c1)C(=O)N([C@H](C)CO)C[C@@H](C)[C@@H](CN(C)C(=O)Nc1ccc3c(c1)OCO3)OCCCC[C@@H](C)O2,10.3[16.7 µM],17.2
C[C@@H]1CN([C@H](C)CO)C(=O)c2cc(N(C)C)ccc2O[C@H]1CN(C)Cc1ccc(Oc2ccccc2)cc1,19.1[16.7 µM],-4.1
C[C@@H]1CN([C@@H](C)CO)S(=O)(=O)c2ccc(Br)cc2O[C@H]1CN(C)C,17.6[16.7 µM],-4.4

Next records follow.
Every second line gives: Env fusion inh, UUG fidelity
CCCC[C@@H]1C=C(C(=O)O)[C@H](c2ccc3c(c2)OCO3)N1S(=O)(=O)c1ccc(C)cc1
 : 1.2, -1.0
C[C@@H]1CN([C@@H](C)CO)C(=O)c2cc(NC(=O)CCC(F)(F)F)ccc2O[C@@H](C)CCCCO[C@@H]1CN(C)C(=O)Cc1ccccc1
 : -3.2[16.7 µM], 3.9
C[C@H](CO)N1C[C@H](C)[C@@H](CN(C)C(=O)c2ccccc2)OCCCC[C@H](C)Oc2ccc(NC(=O)Nc3ccc(F)cc3)cc2C1=O
 : -46.6[16.7 µM], 1.0
C[C@H]1CN([C@@H](C)CO)C(=O)c2cc(C#Cc3ccccc3F)cnc2O[C@@H]1CN(C)S(C)(=O)=O
 : 16.0[16.7 µM], -13.0
CC(C)C(=O)Nc1ccc2c(c1)C(=O)N(C)[C@H]1CC[C@H](CC(=O)NCCCN(C)C)O[C@@H]1CO2
 : 3.3[16.7 µM], -7.4
CC(C)NC(=O)N(C)C[C@H]1Oc2ccc(NC(=O)C3CCCCC3)cc2CC(=O)N([C@@H](C)CO)C[C@H]1C
 : 0.2[16.7 µM], 7.2
C[C@@H]1CCCCO[C@H](CN(C)S(=O)(=O)c2cn(C)cn2)[C@@H](C)CN([C@H](C)CO)C(=O)c2cc(NC(=O)c3ccccc3)ccc2O1
 : 16.0[16.7 µM], -11.9
O=C(C[C@@H]1CC[C@H]2[C@@H](COC[C@@H](O)CN2Cc2cc(F)ccc2F)O1)N1CCc2ccccc2C1
 : 7.9[16.7 µM], -14.0
CC(C)NC(=O)Nc1ccc2c(c1)C(=O)N([C@H](C)CO)C[C@@H](C)[C@@H](CN(C)Cc1ccc(C(F)(F)F)cc1)OCCCC[C@H](C)O2
 : -7.2[16.7 µM], 3.2
Cc1noc(C)c1NC(=O)Nc1ccc2c(c1)C(=O)N([C@@H](C)CO)C[C@H](C)[C@@H](CN(C)Cc1ccc(C(F)(F)F)cc1)OCCCC[C@H](C)O2
 : -2.8[16.7 µM], 7.4
CC(C)CC#Cc1ccc2c(c1)O[C@@H](CN(C)S(=O)(=O)c1ccc(F)cc1)[C@H](C)CN([C@H](C)CO)S2(=O)=O
 : 43.7[16.7 µM], -14.9
O=C(C[C@@H]1C=C[C@H](NC(=O)C2CCC2)[C@H](CO)O1)NCc1ccccc1Cl
 : -9.0[16.7 µM], -18.0
CN1C(=O)c2cc(NC(=O)c3ccccc3)ccc2OC[C@H]2O[C@@H](CC(=O)NCC3CC3)CC[C@H]21
 : -0.2[16.7 µM], -0.5
C[C@@H]1CN([C@H](C)CO)C(=O)c2cc(NC(=O)Nc3ccc4c(c3)OCO4)ccc2O[C@@H]1CN(C)Cc1ccc(Oc2ccccc2)cc1
 : -1.2[16.7 µM], 1.2

Shown with each value named: part of the list above.
compound: COc1ccc(-c2ccc3c(c2)O[C@H](CN(C)Cc2ccccc2C(=O)O)[C@H](C)CN([C@@H](C)CO)S3(=O)=O)cc1
  Env fusion inh: 2.5[16.7 µM]; UUG fidelity: -10.0
compound: C[C@@H]1CN([C@@H](C)CO)C(=O)c2cc(NC(=O)CCC(F)(F)F)ccc2O[C@@H](C)CCCCO[C@@H]1CN(C)C(=O)Cc1ccccc1
  Env fusion inh: -3.2[16.7 µM]; UUG fidelity: 3.9

Bioassay records deposited in PubChem BioAssay by Broad Institute.
